Vaccinia Venus: qHTS for Stage-Specific Inhibitors of Vaccinia Orthopoxvirus: Venus Reporter Primary qHTS; Vaccinia virus Venus reporter expression, fluorescence; Potency, µM (titrated, usually from 36.5 µM), inactives show at the top dose activity change, negative = inhibition, hits mostly inhibitors; 330,000 tested, 0.46% active; AID 720580, 2013; active means well fitted inhibition curve with a large enough effect; inconclusive means small, poorly fitted or top-dose-only effect; inactive means no such curve, though single readings can be large or run the other way; tested in A549 cells; further: nearly all actives have a fitted effect of over 30% in size; inactives centre near -10
Vaccinia mCherry: qHTS for Stage-Specific Inhibitors of Vaccinia Orthopoxvirus: mCherry Reporter Primary qHTS; Potency, µM (series often up to 36.5 µM), inactives show top-dose activity change, negative = inhibition, actives largely listed as inhibitors; Vaccinia virus mCherry reporter infection, fluorescence; about a quarter of the inactives have no number; AID 720579, 2013; 310,000 tested, 0.63% active; active = well fitted inhibition curve with a large enough effect; inconclusive = small, poorly fitted or top-dose-only effect; inactive = no such curve, though single readings can be large or run the other way; tested in A549 cells; further: nearly all actives have a fitted effect of over 35% in size; inactives centre near -10
Starred values were filed as active, the others as inactive; i = inactive; ? = inconclusive; . = not tested or not shown; & = joins results of further samples; [ ] = another dose, or the depositor's remark. On the % scale 0 is the no-effect control and ±100 the full control effect; potency means the concentration at half of the fitted maximal effect.

Start of the data: the first 22 entries, ahead of the listing:
Each structure is followed by: Vaccinia Venus	Vaccinia mCherry
COC(=O)c1ccc(-n2nnc(-c3nc(-c4ccc5c(c4)OCO5)no3)c2C)cc1
 : -5%[7.34 µM]	-9%[7.34 µM]
COc1ccc(Nc2nc3c([nH]2)c(=O)[nH]c(=O)n3C)cc1
 : -13%	-17%
Cc1cc(C)cc(NC(=O)C2CCCN(c3nnc(-n4c(C)ccc4C)s3)C2)c1 (centres undefined)
 : -12%	-19%
O=C1[C@H](Cc2ccccc2)NCCCC[C@@H](c2ccc(Cl)cc2)N1Cc1ccc(Cl)cc1
 : ?	?
COc1cc(O)ccc1/C=N/NC(=O)c1ccc([N+](=O)[O-])cc1
 : 2%	-6%
Cc1cc(C(=O)O)ccc1[N+](=O)[O-]
 : -12%	i
O=C(/C=C/c1ccc(Cl)cc1Cl)N1CCc2ccccc21
 : -3%	-1%
COc1ccc(C(=O)C[n+]2ccc3c(c2)nnn3-c2ccccc2)cc1
 : -15%	-13%
Cc1ccc(Nc2c(-c3ccsc3)nc3cccc(C)n23)cc1
 : -17%&-9%	-1%&-15%
CCOC(=O)N1CCOCCOCCN(C(=O)OCC)CCOCC1
 : -6%	.
CCNC(=O)C1(C)CCCN(Cc2ccc(Oc3ccccc3)cc2)C1 (centres undefined)
 : 4%	-17%
O=C(Nc1ccccc1)Oc1ccccc1
 : -12%	-7%
CC(=O)Nc1cc2c(cc1Cl)Cc1cc(Cl)ccc1-2
 : -5%	i
CCOc1ccc(NC(=O)CN(C)S(=O)(=O)c2cccs2)cc1
 : -20%	.
CC(=O)NCc1nc2ccccc2n1Cc1ccccc1C
 : -3%	9%
CC(C)(C)CN1CCNC(=O)C1CC(=O)NCCc1ccccc1F (centres undefined)
 : 3%	?
COC(=O)c1ccc(NC(=O)CN2C(=O)CC(c3ccccc3)Sc3ccccc32)cc1 (centres undefined)
 : -4%	1%
COc1ccc(NC2CCCN(C(=O)COc3ccc(Cl)cc3C)C2)cc1OC (centres undefined)
 : -15%	-21%
Cc1nc2ccccc2nc1CN1CCOc2ccc(C(C)(O)COc3ccccc3)cc2C1 (centres undefined)
 : -18%	-23%
O=C(NCC1CCCCC1)c1csc([C@@H]2O[C@H](CO)[C@H](O)[C@H](O)[C@H]2O)n1
 : -4%	10%
Cc1ccc(Nc2nnc(SCC(=O)NCc3ccco3)s2)cc1
 : -10%	-5%[1.46 µM]
O=c1cc(CN2CC(O)Cc3ccc4ccccc4c32)nc2sccn12 (centres undefined)
 : -13%	-24%

The list itself (from the top)
Each structure is followed by: Vaccinia Venus	Vaccinia mCherry
COC(=O)c1ccc(-n2nnc(-c3nc(-c4ccc5c(c4)OCO5)no3)c2C)cc1
 : -5%[7.34 µM]	-9%[7.34 µM]
COc1ccc(Nc2nc3c([nH]2)c(=O)[nH]c(=O)n3C)cc1
 : -13%	-17%
Cc1cc(C)cc(NC(=O)C2CCCN(c3nnc(-n4c(C)ccc4C)s3)C2)c1 (centres undefined)
 : -12%	-19%
O=C1[C@H](Cc2ccccc2)NCCCC[C@@H](c2ccc(Cl)cc2)N1Cc1ccc(Cl)cc1
 : ?	?
COc1cc(O)ccc1/C=N/NC(=O)c1ccc([N+](=O)[O-])cc1
 : 2%	-6%
Cc1cc(C(=O)O)ccc1[N+](=O)[O-]
 : -12%	i
O=C(/C=C/c1ccc(Cl)cc1Cl)N1CCc2ccccc21
 : -3%	-1%
COc1ccc(C(=O)C[n+]2ccc3c(c2)nnn3-c2ccccc2)cc1
 : -15%	-13%
Cc1ccc(Nc2c(-c3ccsc3)nc3cccc(C)n23)cc1
 : -17%&-9%	-1%&-15%
CCOC(=O)N1CCOCCOCCN(C(=O)OCC)CCOCC1
 : -6%	.
CCNC(=O)C1(C)CCCN(Cc2ccc(Oc3ccccc3)cc2)C1 (centres undefined)
 : 4%	-17%
O=C(Nc1ccccc1)Oc1ccccc1
 : -12%	-7%
CC(=O)Nc1cc2c(cc1Cl)Cc1cc(Cl)ccc1-2
 : -5%	i
CCOc1ccc(NC(=O)CN(C)S(=O)(=O)c2cccs2)cc1
 : -20%	.
CC(=O)NCc1nc2ccccc2n1Cc1ccccc1C
 : -3%	9%
CC(C)(C)CN1CCNC(=O)C1CC(=O)NCCc1ccccc1F (centres undefined)
 : 3%	?
COC(=O)c1ccc(NC(=O)CN2C(=O)CC(c3ccccc3)Sc3ccccc32)cc1 (centres undefined)
 : -4%	1%
COc1ccc(NC2CCCN(C(=O)COc3ccc(Cl)cc3C)C2)cc1OC (centres undefined)
 : -15%	-21%
Cc1nc2ccccc2nc1CN1CCOc2ccc(C(C)(O)COc3ccccc3)cc2C1 (centres undefined)
 : -18%	-23%
O=C(NCC1CCCCC1)c1csc([C@@H]2O[C@H](CO)[C@H](O)[C@H](O)[C@H]2O)n1
 : -4%	10%

Going on with the list.
Each structure is followed by: Vaccinia Venus	Vaccinia mCherry
Cc1ccc(Nc2nnc(SCC(=O)NCc3ccco3)s2)cc1
 : -10%	-5%[1.46 µM]
O=c1cc(CN2CC(O)Cc3ccc4ccccc4c32)nc2sccn12 (centres undefined)
 : -13%	-24%
O=C(NCCC1=CCCCC1)c1ccc(Cl)c(S(=O)(=O)Nc2ccccc2)c1
 : ?	-22%
COC(=O)CCC[C@H]1CC2(C[C@H](CCCO[Si](C)(C)C(C)(C)C)N1C(=O)OC(C)(C)C)OCCO2
 : -18%	i
CNC(=O)Oc1cccc2c1OC(C)(C)C2
 : -12%	-12%
CC(=O)N1CCC(C(=O)OCc2ccccc2F)(c2ccccc2)CC1
 : -7%	-13%
CCC(=O)c1c[nH]c(C(=O)NCc2cccc(C(F)(F)F)c2)c1
 : -11%	-14%
COc1ccc(C2CC(c3cccs3)=NN2C(=O)CCl)cc1OC (centres undefined)
 : -22%	?
CCNc1nc(NCC)nc(Oc2ccc(OCC)nn2)n1
 : -12%	i
CC1(C(=O)NCc2ccccc2Br)CCN1C(=O)Cc1ccc(-c2ccccc2)cc1 (centres undefined)
 : -14%	8%
CC(=O)Nc1ccc(NC(=O)C(C)Sc2nc3ccccc3c(=O)n2CC2CCCO2)cc1 (centres undefined)
 : -14%	-21%
CCC(=O)N1CCN(c2nc3c(C)cccc3s2)CC1
 : -16%	-15%
CCCCCn1c(CCNC(=O)c2cccs2)nc2ccccc21
 : -19%	-15%
CCOc1ccc2nc(N3CCCC(C(=O)Nc4cc(Cl)c(OC)cc4OC)C3)sc2c1 (centres undefined)
 : -11%	-5%
CCC(CO)Oc1cc(NCc2ccc(F)cc2)c2ncn(C(C)C)c2c1 (centres undefined)
 : -16%	-9%
O=C(Nc1cc2c3c(c1)CC(=O)N3CCC2)c1ccco1
 : -5%	i
C=C(CCO)C1=CCN(S(=O)C(C)(C)C)[C@H]1CCO (some centres undefined)
 : -7%	-8%
COCCCNC(=O)c1cn(C)c(=O)c2c1c1ccccc1n2C
 : -15%	i
COc1ccc(Cl)cc1S(=O)(=O)NC(C)C(=O)NCc1ccccn1 (centres undefined)
 : -5%	-9%
COc1ccc(N(Cc2cc(=O)[nH]c3ccccc23)C(=O)CCl)cc1
 : -27%	-19%

Continuation.
Each structure is followed by: Vaccinia Venus	Vaccinia mCherry
CCNC(=O)C1(C)CCN(C(=O)c2ccc3c(c2)CCO3)C1 (centres undefined)
 : -10%	i
O=C(CN1C(=O)S/C(=C\c2ccc(Cl)cc2)C1=O)NC1C=CS(=O)(=O)C1 (centres undefined)
 : -6%	-14%
CN1C(=O)C(=Cc2ccc(Sc3ccccc3)o2)C(=O)N(C)C1=O
 : 30%	i
COc1ccc(NC(=O)c2ccc(NC(=O)C3COc4ccccc4O3)cc2)c(OC)c1 (centres undefined)
 : -9%	-7%
Cc1cc(C)cc(OCC(=O)NNC(=O)c2cc3ccccc3oc2=O)c1
 : -11%	-13%
Cc1cc(C=C2C(=O)N(C)C(=S)N(C)C2=O)c(C)n1C1CCCCC1
 : -3%	.
O=C(c1cnccn1)N(Cc1cccs1)C1(C(=O)NC2CCCCC2)CCCCC1
 : -16%	4%
Nn1c(SCC(=O)Nc2ccccc2C(F)(F)F)nncc1=O
 : -4%	-21%
Cc1c(C(=O)NC(=S)Nc2ccccc2N2CCCC2)cccc1[N+](=O)[O-]
 : -15%	-23%
COc1cc(NC(=O)c2cc3c(=O)oc4ccc(C)cc4c3s2)cc(OC)c1OC
 : 3%	2%
CCOCCCN1CN(S(=O)(=O)c2ccc(Cl)cc2)c2nc3ccccc3nc21
 : -8%	.
CC1(C)Cc2cccc(OCC(=O)Nc3ccc(S(N)(=O)=O)cc3)c2O1
 : -7%	-16%
Cc1sc2nc(SCC(=O)N(CCO)CCO)n(C3CCCCC3)c(=O)c2c1C
 : -23%	-12%[1.46 µM]
CCCN(Cc1cc2cc(C)ccc2[nH]c1=O)C(=O)c1cccc(OC)c1
 : -25%	.
CCOC(=O)c1oc2ccccc2c1COC(=O)CNC(=O)c1ccccc1F
 : -7%	i
CCOC(=O)C1CCCN(Cc2nc(CC3CC3)no2)C1 (centres undefined)
 : -10%	-24%
COc1ccc(Cl)cc1-c1cc(C(=O)NCc2cc(C(F)(F)F)cc(C(F)(F)F)c2)[nH]n1
 : -3%	-19%
CCCN(CCC)C(=O)Cc1coc2ccc3ccccc3c12
 : -12%	-27%
O=C(c1cc(-c2ccco2)nc2ccccc12)N(Cc1nnc(-c2ccc(Cl)cc2)o1)C1CC1
 : -9%	-2%
COc1ccc(-c2csc3nc(-c4ccc(Cl)cc4)oc(=O)c23)cc1
 : 1%	-3%

Remaining list, next part.
Each structure is followed by: Vaccinia Venus	Vaccinia mCherry
COc1cccc(CN2CCCC(C(=O)Nc3ccc(-c4cscn4)cc3)C2)c1 (centres undefined)
 : ?	-28%
Cc1ccc(NC(=O)CCN2CCN(C/C=C/c3ccccc3)CC2)cc1C
 : -26%	i
COc1ccc(Cc2nnc(-c3ccccc3)o2)cc1
 : 11%	-10%
COC(=O)c1c(NC(=S)NN2CCN(C)CC2)sc2c1CCC(C)C2 (centres undefined)
 : -15%	-20%
CCN1CCN(Cc2ccc(NC(=O)c3cc(NC(=O)N4CCNC4=O)cc(OC)c3)cc2C(F)(F)F)CC1
 : ?	i
CC(C)(C)C(=O)Nc1nnc2n1CCS2
 : 16%	20%
COc1cccc(C(NC(C)=O)c2nc(-c3ccc(F)cc3OC)cs2)c1 (centres undefined)
 : -1%	-20%
O=C(Nc1cc(C(F)(F)F)ccc1N1CCOCC1)c1ccc(F)cc1
 : -24%	.
c1cncc(C(c2nnnn2C2CCCC2)N2CCCC2)c1 (centres undefined)
 : -12%	i
COc1ccc(NC2=CC(=O)N(C)C2=O)cc1
 : -3%	-10%
CCOc1ccc(-c2c(C)nn3c(C)c(C(=O)Nc4cccc(Cl)c4C)cnc23)cc1OCC
 : 0%	7%
COc1ccccc1C/C(N)=N/OC(=O)COc1cccc(C)c1
 : -10%	-21%
CC1(C(=O)Nc2ccc(Cl)c(Cl)c2)CCN1C(=O)Cc1ccc(-c2ccccc2)cc1 (centres undefined)
 : -29%	-2%
CCN(CC)Cc1cc(C(C)=O)ccc1O
 : -12%	.
CC1=C(c2ccc(C(C)C)cc2)S(=O)(=O)N=C1N1CCC(C(=O)Nc2ccc(C)cc2)CC1
 : -3%	-10%
O=C1OCCC1Sc1nnc(-c2ccccc2)o1 (centres undefined)
 : 8%	-7%
CCCC(=O)Nc1nnc(SCc2cc(=O)n3ccccc3n2)s1
 : -20%	-15%
COc1cc(/C=N/N=C2/SCC(=O)N2c2ccc(O)cc2)ccc1O
 : 5%	14%
CCCNC(=O)NC(=O)c1cnccc1C(F)(F)F
 : ?	-2%
CC(C)C(NS(=O)(=O)c1ccccc1)C(=O)N1CCCCCC1 (centres undefined)
 : -22%	i

Two records drawn at random from the list so far:
Each structure is followed by: Vaccinia Venus	Vaccinia mCherry
C=C(CCO)C1=CCN(S(=O)C(C)(C)C)[C@H]1CCO (some centres undefined)
 : -7%	-8%
COc1ccc(C2CC(c3cccs3)=NN2C(=O)CCl)cc1OC (centres undefined)
 : -22%	?

(more compounds)
Each structure is followed by: Vaccinia Venus	Vaccinia mCherry
COc1ccc(NC(=O)CSc2nnc(Cc3ccc(C)cc3)c(=O)n2N)cc1
 : -17%	-21%
Cc1ccc(C(O)(C(=O)NNc2ccc3ccccc3n2)c2ccc(C)cc2)cc1
 : -18%&-18%	-26%&-2%
Cc1ccc(-c2nc(CS(=O)CC(=O)NCCCc3ccccc3)c(C)o2)cc1 (centres undefined)
 : ?	-25%
O=C(Nn1cnnc1)c1ccc(OC(F)(F)C(F)C(F)(F)F)cc1 (centres undefined)
 : -12%	i
CCOc1ccc(C2CC(c3ccc(CC)cc3)n3nc(N)nc3N2)cc1 (centres undefined)
 : -9%	-16%
Cc1ccc(NC2=NC(=S)N(CC#N)C23CCCCC3)cc1
 : -16%	-25%
CCOC(=O)Cn1c(=O)c2c(nc(Br)n2CC(=O)OCC)n(C)c1=O
 : -4%	.
COc1cccc(C(=O)Nc2ccc(NC(=O)C3CC3)nc2)c1
 : 1%	-3%
Cc1ccccc1N(CC(=O)NCCc1ccccc1)C(=O)c1csnn1
 : 26%	-10%
CCc1ccc(NC(=O)N[C@H](C(=O)O)C(C)CC)cc1 (some centres undefined)
 : -8%	i

A second format for part of the listing above.
Cc1ccc(NC2=NC(=S)N(CC#N)C23CCCCC3)cc1
- Vaccinia Venus = -16%
- Vaccinia mCherry = -25%

CCc1ccc(NC(=O)N[C@H](C(=O)O)C(C)CC)cc1 (some centres undefined)
- Vaccinia Venus = -8%
- Vaccinia mCherry = i
